Vaccinia inh – blocks a specific stage of Vaccinia orthopoxvirus infection; Vaccinia-infected cells, mCherry/Venus stage reporter fluorescence; active compounds read low; some inactives read as strong as hits; activity change (mCherry), % (test concentration not listed); hit rate 0.01% among 89,000;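 active = mCherry past -33% and 40 or more points under the early reporter, replicates agreeing; inconclusive = past -33% without that gap or agreement; tested in A549 cells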;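 also: scaled between vehicle wells and reference inhibitor wells; 23 nL library stock went into each well; one replicate is shown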
Vaccinia inh Venus – also measured in Vaccinia inh; calls as there; activity change (Venus), %; measured here: Venus reporter, other viral stage;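 negative = less Venus signal; first of two replicates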
An asterisk follows results filed as active; u = inconclusive; x = not tested or not shown; & = joins results of further samples. These rows are one share of the data; the hit share may differ from the screen's.

mol,Vaccinia inh,Vaccinia inh Venus
C[C@H]1CCCCO[C@H](CN(C)C(=O)NC2CCCCC2)[C@@H](C)CN([C@@H](C)CO)C(=O)c2cc(NC(=O)c3ccncc3)ccc2O1,8,7
CC(=O)N1C[C@@H]2[C@H](c3ccccc31)[C@H](CO)N2C(=O)CC1CC1,3,7
Cc1ccc(S(=O)(=O)Nc2ccc3c(c2)C(=O)N([C@@H](C)CO)C[C@@H](C)[C@H](CN(C)CC2CC2)OCCCC[C@H](C)O3)cc1,2,4
C[C@H](CO)N1C[C@H](C)[C@H](CN(C)S(C)(=O)=O)Oc2ccc(NC(=O)CCCN(C)C)cc2CC1=O,-1,1
COCCNC(=O)C[C@@H]1CC[C@@H]2[C@H](COC[C@H](O)CN2C(=O)Nc2ccccc2OC)O1,14,15
O=C(C[C@@H]1CC[C@H](NC(=O)c2cccc(F)c2)[C@@H](CO)O1)NCc1ccccc1,4,10
CO[C@@H]1CN(C)C(=O)c2ccc(NS(C)(=O)=O)cc2OC[C@H](C)N(C(=O)CC2CC2)C[C@@H]1C,11,0
C/C=C/c1ccc2c(c1)O[C@H](CN(C)C)[C@@H](C)CN([C@H](C)CO)S2(=O)=O,1,-5
Cc1ccc(S(=O)(=O)N[C@@H]2C=C[C@@H](CC(=O)N3CCc4ccccc4C3)O[C@H]2CO)cc1,-4,-5
C[C@H](CO)N1C[C@H](C)[C@H](CN(C)C(=O)CN(C)C)Oc2ncc(C#Cc3ccncc3)cc2C1=O,9,5
CCNC(=O)C[C@@H]1CC[C@H]2[C@H](COc3ccc(NC(=O)Nc4cccc(Cl)c4)cc3C(=O)N2C)O1,-8,-2
C[C@@H]1CN([C@@H](C)CO)C(=O)c2cc(NC(=O)Nc3ccc(F)cc3)ccc2O[C@@H]1CN(C)S(=O)(=O)c1cn(C)cn1,6,4
COc1cccc(NC(=O)Nc2ccc3c(c2)C(=O)N(C)C[C@H](OC)[C@H](C)CN[C@H](C)CO3)c1,12,22
CCNC(=O)C[C@@H]1C=C[C@H](NS(=O)(=O)c2ccc(F)cc2)[C@@H](CO)O1,6,13
COc1ccccc1C(=O)N1C[C@H]2[C@@H](c3ccccc31)[C@H](CO)N2C(=O)C1CCCCC1,2,3
C[C@@H]1CCCCO[C@H](CN(C)Cc2ccccc2)[C@H](C)CN([C@@H](C)CO)C(=O)c2cc(NC(=O)C3CCCCC3)ccc2O1,u,x
COc1ccc(NC(=O)Nc2ccc3c(c2)C(=O)N([C@H](C)CO)C[C@H](C)[C@H](CN(C)C(=O)Nc2ccc(F)cc2)O3)cc1,6,-4
COc1ccc(NC(=O)Nc2ccc3c(c2)C(=O)N([C@H](C)CO)C[C@@H](C)[C@H](CN(C)S(=O)(=O)c2cccs2)O3)cc1,6,11
Cc1ccc(S(=O)(=O)Nc2cccc3c2O[C@H](CN(C)CC2CCCCC2)[C@H](C)CN([C@H](C)CO)C3=O)cc1,-14,-3
Cc1ccccc1-c1ccc([C@@H]2[C@@H](CO)N3CCCCN(CC4CC4)C[C@H]23)cc1,-31,-26
Cc1noc(C)c1NC(=O)Nc1cccc2c1O[C@H](CN(C)CC1CC1)[C@@H](C)CN([C@@H](C)CO)C2=O,9,16
C[C@@H]1CN([C@H](C)CO)C(=O)c2cc(NS(=O)(=O)c3ccc(F)cc3)ccc2O[C@@H]1CN(C)S(=O)(=O)c1ccc(Cl)cc1,-32,-14
CNC(=O)C1=C[C@H](c2csc3ccccc23)C[C@H](OCCCCO)O1,12,7
C[C@@H]1CN([C@H](C)CO)C(=O)c2cccc(NC(=O)c3nc4ccccc4s3)c2O[C@@H]1CN(C)S(=O)(=O)c1cn(C)cn1,10,7

Entries of single compounds, quoted from the list:
Entry for COc1ccccc1C(=O)N1C[C@H]2[C@@H](c3ccccc31)[C@H](CO)N2C(=O)C1CCCCC1 → Vaccinia inh: 2; Vaccinia inh Venus: 3
Entry for Cc1ccccc1-c1ccc([C@@H]2[C@@H](CO)N3CCCCN(CC4CC4)C[C@H]23)cc1 → Vaccinia inh: -31; Vaccinia inh Venus: -26
Entry for CNC(=O)C1=C[C@H](c2csc3ccccc23)C[C@H](OCCCCO)O1 → Vaccinia inh: 12; Vaccinia inh Venus: 7

Remaining list, next part.
mol,Vaccinia inh,Vaccinia inh Venus
CN1CCN(C(=O)C[C@H]2C[C@@H]3c4cc(NC(=O)Nc5ccc(F)cc5)ccc4O[C@@H]3[C@H](CO)O2)CC1,3,6
C[C@H]1CN([C@@H](C)CO)C(=O)c2cc(C#CC3CC3)cnc2O[C@H]1CN(C)C(=O)c1ccccc1,17,6
COc1ccc(S(=O)(=O)Nc2cccc3c2O[C@@H](CN(C)Cc2ccc4c(c2)OCO4)[C@@H](C)CN([C@@H](C)CO)C3=O)cc1,-15,-10
C[C@@H]1CN([C@H](C)CO)C(=O)c2cc(NC(=O)CCN3CCOCC3)ccc2O[C@@H]1CN(C)S(C)(=O)=O,2,-2
O=C(O)C[C@@H]1CC[C@@H](NC(=O)Nc2ccccc2)[C@H](CO)O1,5,1
Cc1noc(C)c1NC(=O)N(C)C[C@@H]1Oc2c(NC(=O)Nc3cccc4ccccc34)cccc2C(=O)N([C@H](C)CO)C[C@H]1C,5,7
C[C@H](CO)N1C[C@H](C)[C@@H](CN(C)Cc2ccccc2)Oc2ccc(N(C)C)cc2CC1=O,0,0
CO[C@@H]1CN(C)C(=O)c2ccc(NC(=O)C3CC3)cc2OC[C@@H](C)N(C(C)=O)C[C@H]1C,8,2
O=C(C[C@@H]1C[C@@H]2c3cc(NC(=O)CC4CC4)ccc3O[C@@H]2[C@@H](CO)O1)NCCc1ccccc1,15,8
C[C@@H]1CN([C@@H](C)CO)C(=O)c2cc(NS(=O)(=O)c3cn(C)cn3)ccc2O[C@@H]1CN(C)Cc1ccccc1,14,10
CO[C@@H](CN(C)C(=O)Nc1ccc(F)cc1)[C@H](C)CN(Cc1ccccc1Cl)[C@@H](C)CO,-13,-9
C[C@@H]1CN([C@H](C)CO)S(=O)(=O)c2ccc(C#C[C@@H](C)O)cc2O[C@H]1CN(C)C(=O)Cc1ccccn1,15,6
C[C@@H]1CN([C@@H](C)CO)C(=O)c2cc(C#CC3(O)CCCC3)cnc2O[C@@H]1CN(C)C(=O)Cc1ccccc1,8,4
COc1cccc(S(=O)(=O)N2CCCCN3[C@H](C2)[C@H](c2ccc(-c4ccccc4)cc2)[C@@H]3CO)c1,-23,-27
O=C(c1cccnc1)N1CCCCN2[C@@H](CO)[C@@H](c3ccc(C#Cc4ccccc4)cc3)[C@@H]2C1,u,x
CC(=O)N(C)C[C@@H]1Oc2ncc(C#CC3(O)CCCC3)cc2C(=O)N([C@@H](C)CO)C[C@@H]1C,17,19
C[C@@H]1CCCCO[C@@H](CN(C)S(=O)(=O)c2ccc(F)cc2)[C@@H](C)CN([C@H](C)CO)C(=O)c2cc(NC(=O)C3CCCCC3)ccc2O1,6,7
CO[C@H]1CN(C)C(=O)c2cc(NC(=O)C3CC3)ccc2OC[C@@H](C)N(Cc2cc(F)ccc2F)C[C@H]1C,-23,-10
CCNC(=O)C[C@@H]1CC[C@H]2[C@@H](COC[C@H](O)CN2C(=O)CC)O1,18,16
Cc1noc(C)c1S(=O)(=O)Nc1ccc2c(c1)C(=O)N([C@@H](C)CO)C[C@@H](C)[C@@H](CN(C)Cc1ccccc1)OCCCC[C@H](C)O2,u,x
CNC(=O)C[C@@H]1CC[C@@H]2[C@H](COc3ccc(NC(=O)c4cccc(F)c4)cc3C(=O)N2C)O1,-3&8,-4&6
CN(C)CCCNC(=O)[C@@H]1[C@@H](CO)[C@@H]2Cn3c(cccc3=O)[C@H]1N2CC1CC1,-9,-4
O=C(c1cccnc1)N1C[C@H]2[C@@H](c3ccccc31)[C@H](CO)N2C(=O)Nc1ccccc1F,20,14
CO[C@@H]1CN(C)C(=O)c2ccc(NS(=O)(=O)c3ccccc3F)cc2OC[C@@H](C)NC[C@H]1C,4,9
O=C(C[C@H]1CC[C@H](NC(=O)c2ccccn2)[C@@H](CO)O1)NCc1cc(F)cc(F)c1,9,8
O=C(CC1CC1)Nc1ccc2c(c1)[C@H]1C[C@@H](CC(=O)NC3CCCCC3)O[C@H](CO)[C@H]1O2,12,-2
C[C@@H]1CN([C@@H](C)CO)C(=O)c2cc(NS(=O)(=O)c3cn(C)cn3)ccc2O[C@H]1CN(C)S(=O)(=O)c1ccccc1,4,0
COc1ccc(NC(=O)N(C)C[C@H]2Oc3ccc(NS(=O)(=O)c4ccccc4)cc3CC(=O)N([C@H](C)CO)C[C@@H]2C)cc1,1,7
Cc1ccc(-c2ccc([C@H]3[C@H]4CN(C(=O)c5ccncc5)CC(=O)N4[C@H]3CO)cc2)cc1,-32,-25
COC(=O)C[C@H]1CC[C@@H]2[C@@H](COc3ccc(NC(=O)C4CC4)cc3C(=O)N2C)O1,3,3
C[C@@H]1CN([C@H](C)CO)C(=O)CCCn2nncc2CO[C@@H]1CN(C)S(=O)(=O)c1ccc(Cl)cc1,5&-6,10&-2
Cc1ccc(S(=O)(=O)Nc2ccc3c(c2)C(=O)N([C@@H](C)CO)C[C@@H](C)[C@@H](CN(C)C(=O)Nc2cccc4ccccc24)OCCCC[C@@H](C)O3)cc1,1,6
COc1ccc(NC(=O)Nc2ccc3c(c2)C(=O)N([C@@H](C)CO)C[C@@H](C)[C@@H](CN(C)C(=O)NC(C)C)O3)cc1,16,12
O=C(C1CCOCC1)N1CC2(C1)[C@@H](c1ccccc1)[C@@H](CO)N2C(=O)CC1CC1,6,-1
COc1ccccc1S(=O)(=O)N[C@H]1C=C[C@@H](CC(=O)N2CCN(C)CC2)O[C@H]1CO,3,2
O=C(CN1CCOCC1)NCC[C@@H]1CC[C@@H](NC(=O)Cc2ccccn2)[C@@H](CO)O1,-6,9
CC(C)C#Cc1cnc2c(c1)C(=O)N([C@@H](C)CO)C[C@H](C)[C@@H](CN(C)C(=O)CC1CC1)O2,-7,-14
C[C@H](NC(=O)[C@@H]1[C@@H](CO)[C@@H]2Cn3c(cccc3=O)[C@H]1N2Cc1cccnc1)c1ccccc1,7,7
C[C@H]1CN([C@@H](C)CO)C(=O)c2cc(NC(=O)NC3CCCCC3)ccc2O[C@H]1CN(C)S(C)(=O)=O,6,1
O=C(Cc1ccccn1)NCC[C@@H]1CC[C@@H](NC(=O)CN2CCOCC2)[C@H](CO)O1,8,9
O=C(NCC[C@@H]1CC[C@@H](NC(=O)C2CC2)[C@@H](CO)O1)c1cc(Cl)cc(Cl)c1,-8,-5
C[C@H](CO)N1C[C@H](C)[C@@H](CN(C)Cc2ccc(C(F)(F)F)cc2)OCCCC[C@H](C)Oc2ccc(NS(=O)(=O)c3ccc(F)cc3)cc2C1=O,-30,-24
C[C@H](CO)N1C[C@H](C)[C@@H](CN(C)CC2CCOCC2)Oc2cc(C#Cc3ccccc3F)ccc2S1(=O)=O,u,-16
Cn1cnc(S(=O)(=O)N2[C@@H]3CNC[C@H]2C3c2ccc(-c3ccncc3)cc2)c1 (some centres undefined),5&7,-7&-7
C[C@@H]1CN([C@@H](C)CO)C(=O)Cc2cc(NS(=O)(=O)c3cn(C)cn3)ccc2O[C@H]1CN(C)S(=O)(=O)c1cn(C)cn1,22,23
COc1ccc(S(=O)(=O)N(C)C[C@H]2Oc3ccc(NC(=O)C4CC4)cc3CC(=O)N([C@H](C)CO)C[C@@H]2C)cc1,5,0
CC(C)(C)OC(=O)NCCOCCOCCNc1ncnc2ccc(Br)cc12,-33,-31
O=S(=O)(c1ccccc1)N1C[C@@H]2[C@H](c3ccccc31)[C@H](CO)N2Cc1ccccc1,-7,-8
C[C@@H]1CN([C@H](C)CO)C(=O)c2cc(NC(=O)Nc3ccc(F)cc3)ccc2O[C@H]1CN(C)S(=O)(=O)c1ccc(F)cc1,6,1
COc1ccc2c3c(n(C)c2c1)[C@H](CO)NCC31CCN(S(=O)(=O)c2ccccc2)CC1,-4,-7
COC(=O)C[C@@H]1CC[C@H]2[C@H](COc3ccc(NC(=O)c4cccc(Cl)c4)cc3C(=O)N2C)O1,-9,-2
CCC(=O)N(C)C[C@@H]1Oc2ncc(-c3cccc(OC)c3)cc2C(=O)N([C@H](C)CO)C[C@@H]1C,21,3
COc1ccc(NC(=O)Nc2ccc3c(c2)C(=O)N([C@@H](C)CO)C[C@H](C)[C@H](CN(C)Cc2ccc(Cl)c(Cl)c2)O3)cc1,u,x
COC(=O)C[C@@H]1CC[C@H]2[C@H](COc3ccc(NC(=O)c4ccc(OC)cc4)cc3C(=O)N2C)O1,-13,-11
O=C(C[C@H]1CC[C@@H]2[C@H](COC[C@@H](O)CN2Cc2ccncc2)O1)NCC1CC1,4,10
C[C@H]1CN([C@@H](C)CO)C(=O)c2cc(C#Cc3cccnc3)cnc2O[C@H]1CN(C)S(C)(=O)=O,24,18
C[C@H](CO)N1C[C@H](C)[C@@H](CN(C)Cc2ccc(C(F)(F)F)cc2)Oc2ccc(NC(=O)CCN3CCOCC3)cc2CC1=O,-29,-19

Ordered by heavy-atom count (highest first): three of the compounds above
mol,Vaccinia inh,Vaccinia inh Venus
COC(=O)C[C@@H]1CC[C@H]2[C@H](COc3ccc(NC(=O)c4ccc(OC)cc4)cc3C(=O)N2C)O1,-13,-11
C[C@H]1CN([C@@H](C)CO)C(=O)c2cc(C#Cc3cccnc3)cnc2O[C@H]1CN(C)S(C)(=O)=O,24,18
O=C(C[C@H]1CC[C@@H]2[C@H](COC[C@@H](O)CN2Cc2ccncc2)O1)NCC1CC1,4,10

Screens (PubChem)
